TRPV1 potentiator = HTS Assay for Compounds that Act as Potentiators of the Vanilloid Receptor 1. TRPV1-expressing cells, Fluo-8 calcium influx, capsaicin EC20 potentiation; host cell line not named in the record; control for the full effect not named in the record. potentiation, % at 8.33 µM. 320,000 tested, 0.02% active; active means potentiation above 80%; inconclusive means 30% to 80%; inactive means below 30%; further: 0% is about no effect
Target sequence (Q8NER1 whole entry, looked up): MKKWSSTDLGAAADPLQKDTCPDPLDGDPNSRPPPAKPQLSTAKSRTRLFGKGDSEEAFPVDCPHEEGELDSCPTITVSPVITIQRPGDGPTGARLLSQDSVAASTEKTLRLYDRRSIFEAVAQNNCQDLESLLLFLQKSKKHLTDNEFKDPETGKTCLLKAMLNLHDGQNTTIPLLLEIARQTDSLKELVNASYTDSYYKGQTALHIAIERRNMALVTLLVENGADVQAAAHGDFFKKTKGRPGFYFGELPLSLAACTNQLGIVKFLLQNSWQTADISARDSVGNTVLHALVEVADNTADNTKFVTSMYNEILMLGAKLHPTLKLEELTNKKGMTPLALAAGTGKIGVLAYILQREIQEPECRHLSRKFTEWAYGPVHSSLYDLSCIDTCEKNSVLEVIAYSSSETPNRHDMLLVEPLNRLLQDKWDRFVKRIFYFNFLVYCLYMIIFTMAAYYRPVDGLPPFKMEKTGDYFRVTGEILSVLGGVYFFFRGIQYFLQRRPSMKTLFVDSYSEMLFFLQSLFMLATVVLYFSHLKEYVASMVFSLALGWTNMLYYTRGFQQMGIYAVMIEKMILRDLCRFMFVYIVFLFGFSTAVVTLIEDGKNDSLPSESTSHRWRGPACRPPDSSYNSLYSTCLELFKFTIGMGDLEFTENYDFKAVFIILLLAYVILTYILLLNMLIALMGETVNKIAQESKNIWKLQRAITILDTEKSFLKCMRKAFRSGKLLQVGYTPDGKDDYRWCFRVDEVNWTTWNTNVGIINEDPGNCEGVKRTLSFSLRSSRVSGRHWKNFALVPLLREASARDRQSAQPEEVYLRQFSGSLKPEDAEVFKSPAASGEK
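Fluo-8 calcium influx in TRPV1-expressing cells, kinetic read (ex 480/em 520 nm). Compound added and read 3 min for agonist activity, followed by capsaicin at EC20 final and 2 min further read for enhancement.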
CtBP-E1A inh = qHTS Assay for Inhibitors of the CtBP/E1A Interaction; CtBP / adenovirus E1A interaction (AlphaScreen); AlphaScreen GST-E1A/His-CtBP binding, 1536-well; hits give low values; control for the full effect not named in the record; activity change, % (concentration not given with the values); 340,000 tested, 0.49% active; AID 651724, 2012; in the data active means activity change below about -65%; inconclusive means about -30% to -65%; inactive means above about -30%; further: on the % scale 0 is the no-effect control and ±100 the full control effect
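AlphaScreen with 125 nM GST-E1A and 125 nM His-CtBP (5X stocks) in Tris pH 8.0, 300 mM NaCl, BSA, Tween 20, TCEP. Compounds preincubated 2 h at 37 deg C, then glutathione donor/nickel acceptor beads added for 1 h at 37 deg C in dark.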
gsp agonist = qHTS for Agonist of gsp, the Etiologic Mutation Responsible for Fibrous Dysplasia/McCune-Albright Syndrome: qHTS. gsp mutant cells, cAMP HTRF, 30 min; control for the full effect not named in the record. Potency, µM (titrated, usually from 76.9 µM), inactives show at the highest dose activation (cAMP increase), hits mostly activators. AID 624287, 2012. 340,000 tested, 0.13% active; active = well fitted activation curve with a large enough effect; inconclusive = small, poorly fitted or top-dose-only effect, or another doubt; inactive = no such curve, though single readings can be large or run the other way; cell line not stated here;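 further: phosphodiesterase inhibitor Ro 20-1724 added with compounds to block cAMP breakdown; potency means the concentration at half of the fitted maximal effect; nearly all actives have a fitted effect of over 60% in size; about a fifth of the inactives were tested at one dose only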
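Cells in DMEM/10% FBS with G418 were pretreated with compounds in DMSO plus […] (300 uM stock) for 30 min at 37C. cAMP was measured by HTRF (cAMP-d2 plus anti-cAMP antibody-K) after 30 min at room temperature.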
ClpP mod = qHTS Assay for Activators of ClpP; purified B. subtilis ClpP, FRET peptide cleavage, 20 min; Potency, µM (series often up to 57.5 µM), for inactives: at the top dose activity change, negative = active; 340,000 tested, 1.9% active; active = well fitted falling curve with a large enough effect; inconclusive = small, poorly fitted or top-dose-only effect; inactive = no such curve, though single readings can be large or run the other way; further: potency means the concentration at half of the fitted maximal effect; the source files actives as falling curves though it sought activators and does not explain the sign; nearly all actives have a fitted effect of over 65% in size; many hits overshoot -100%
Target sequence (P80244 whole entry, looked up): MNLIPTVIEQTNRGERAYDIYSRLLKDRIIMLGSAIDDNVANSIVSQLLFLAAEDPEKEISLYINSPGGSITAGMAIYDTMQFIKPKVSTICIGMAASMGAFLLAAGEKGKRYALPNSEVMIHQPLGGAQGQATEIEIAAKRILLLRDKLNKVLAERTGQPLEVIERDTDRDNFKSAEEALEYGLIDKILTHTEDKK
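ClpP 10 microg/mL final, pH 8 Tris/KCl buffer with BSA, glycerol, Tween-20; compound pinned in; FRET-FV substrate; RT 20 min; Ex320/Em430; ΔFRET vs ADEP 5.8 microM, DMSO, no enzyme.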
Sfp inh = qHTS Assay for Inhibitors of Bacillus subtilis Sfp phosphopantetheinyl transferase (PPTase); Biochemical Sfp PPTase activity, qHTS; Potency, µM, without a hit: max response, negative = inhibition, hits mostly inhibitors; 310,000 tested, 3.5% active; active means well fitted inhibition curve with a large enough effect; inconclusive means small, poorly fitted or top-dose-only effect, or another doubt; inactive means no such curve, though single readings can be large or run the other way;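 further: the enzyme is Sfp with the accession as filed and its product quenches rhodamine fluorescence; potency means the concentration at half of the fitted maximal effect; 0% = enzyme reaction without inhibitor and -100% = no enzyme wells; top concentration of the series not given in the record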
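Fluorescence-quenching assay: 15 nM Sfp-PPTase preincubated 15 min at room temperature with compound, then 5 uM rhodamine-CoA and 12.5 uM BHQ-2-labelled YbbR peptide added. Fluorescence (ex 525/em 598 nm) read at start and after 30 min; difference gives rate.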
Menin-MLL FL inh = qHTS Assay for Inhibitors Targeting the Menin-MLL Interaction in MLL Related Leukemias: Competition With Fluorescein Labeled MLL-derived Peptide; Fluorescence polarization, fluorescein-MLL peptide displacement from menin; FP activity change, % at 61.4 µM; 290,000 tested, under 10 active; AID 1766, 2009; inconclusive = falling polarisation curve, or a change in total fluorescence; inactive = total fluorescence flat and polarisation flat or rising; no compound was filed as active; the % refers to the polarisation; negative = inhibition;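 further: % of control where 0% means no effect; inhibitors lower the polarisation; unlabelled MLL peptide was the positive control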
gsp antag = qHTS for Antagonists of gsp, the Etiologic Mutation Responsible for Fibrous Dysplasia/McCune-Albright Syndrome: qHTS. gsp-mutant cells, cAMP HTRF, 30 min; control for the full effect not named in the record. Potency, µM (top dose mostly 76.9 µM), for the others: at the top dose activity change, negative = inhibition, most hits filed as inhibitors. 340,000 tested, 0.4% active. AID 624288, 2012; active = falling curve of any shape with a large fitted effect; inconclusive = falling curve, mostly with a smaller effect; inactive = flat or rising curve; cell line not stated here;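 further: intracellular cAMP measured with PDE inhibitor Ro 20-1724 present during compound exposure; potency means the concentration at half of the fitted maximal effect; on the % scale 0 is the no-effect control and ±100 the full control effect; nearly all actives have a fitted effect of over 65% in size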
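G418-selected cells were plated in DMEM/10% FBS for 16-24 h at 37C, then treated with compounds plus the PDE inhibitor […] (300 uM solution added) for 30 min at 37C. Intracellular cAMP was measured by HTRF after 30 min lysis at room temperature.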
* = called active by the depositor; & = joins results of further samples; [ ] = remark or other dose.

For Cc1ccc2[nH]cc(CCNC(=O)c3ccco3)c2c1 the results were TRPV1 potentiator -8, CtBP-E1A inh 0, gsp agonist 4%, Sfp inh 0%, Menin-MLL FL inh -2.1 and gsp antag -10%.
CC(=O)Nc1ccc(S(=O)(=O)NCc2nc(-c3ccccc3Cl)no2)cc1 was read as TRPV1 potentiator 2, CtBP-E1A inh 3, gsp agonist -9%[15.4 µM], Sfp inh -5%, Menin-MLL FL inh -2.0 and gsp antag 3%.
`CCOC(=O)c1cc(C(C)(C)C)oc1CNC(=O)c1c(C)oc2c1CCCC2` gave TRPV1 potentiator -13, CtBP-E1A inh -3, gsp agonist -22%, ClpP mod -5.8%, Sfp inh -1%, Menin-MLL FL inh 5.5 and gsp antag inconclusive.
`Cc1c(C(=O)OCC(=O)c2c(N)n(CC(C)C)c(=O)n(C)c2=O)oc2ccccc12` gave TRPV1 potentiator 15, CtBP-E1A inh 2, gsp agonist inconclusive, ClpP mod -21%, Sfp inh 9%, Menin-MLL FL inh -0.2 and gsp antag -13%.
Screening CCCCS(=O)(=O)c1sc2nc3c(cc2c1N)CCCC3 returned TRPV1 potentiator -4, CtBP-E1A inh 0, gsp agonist -42%[inhibitor], ClpP mod -15%, Sfp inh 0%, Menin-MLL FL inh 0.4 and gsp antag -17%.
For O=C(NCCN1CCOCC1)c1cc(Sc2cccc(Cl)c2)nc2ccccc12 the results were TRPV1 potentiator -8, CtBP-E1A inh 0, gsp agonist -20%, ClpP mod -1.5%, Sfp inh 28%, Menin-MLL FL inh 1.3 and gsp antag -2%.
Screening Cc1cc(C)c2sc(N(CCCN(C)C)C(=O)c3ccc(Br)s3)nc2c1 returned TRPV1 potentiator 13, CtBP-E1A inh 0, gsp agonist inconclusive, ClpP mod -15%, Sfp inh -16%, Menin-MLL FL inh 1.3 and gsp antag 8%.
For Cc1ccc(C)c(NC(=O)CSc2nnc(-c3ccccc3)o2)c1 the results were TRPV1 potentiator -4, CtBP-E1A inh 0, gsp agonist 22%, ClpP mod 0.1%, Sfp inh 11%, Menin-MLL FL inh 1.1 and gsp antag 2%.
`COC(=O)c1ccc(COc2ccc(/C=N/Nc3nc(C)cc(=O)[nH]3)cc2)cc1` gave TRPV1 potentiator -7, gsp agonist 5%, ClpP mod -9.3%, Sfp inh 2%, Menin-MLL FL inh 0.2 and gsp antag -4%.
`CCOC(=O)c1[nH]c2ccc(C)cc2c1N` gave TRPV1 potentiator 11, CtBP-E1A inh -5, gsp agonist -20%, ClpP mod 25µM*, Sfp inh 18µM*, Menin-MLL FL inh -0.2 and gsp antag -24%.
For CCC(=O)OCC(=O)c1cc(C)n(-c2ccc(Br)cc2)c1C the results were TRPV1 potentiator -18, CtBP-E1A inh -25, gsp agonist -3%[15.4 µM], ClpP mod -23%, Sfp inh 8%, Menin-MLL FL inh -1.3 and gsp antag -11%.
CCC(CC)C(=O)NCCc1cc2ccc(C)cc2[nH]c1=O was read as TRPV1 potentiator 10, CtBP-E1A inh -2, gsp agonist 21%, ClpP mod -17%, Sfp inh -6%, Menin-MLL FL inh -2.2 and gsp antag 3%.
`Cc1cc(=O)[nH]c(/N=C(\N)Nc2ccc(SC(F)F)cc2)n1` gave TRPV1 potentiator -3, CtBP-E1A inh -1, gsp agonist inconclusive, Sfp inh -2%, Menin-MLL FL inh -2.0 and gsp antag 9%.
`COc1ccc(CCNC(=O)CCCOc2cccc(C)c2C)cc1OC` gave TRPV1 potentiator 13, CtBP-E1A inh 2, gsp agonist 22%, ClpP mod 1.0%, Sfp inh -13%, Menin-MLL FL inh 2.2 and gsp antag -16%.
Screening COc1ccc(S(=O)(=O)N(C)c2ccc(C(=O)NCc3ccccn3)cc2)cc1 returned TRPV1 potentiator 6, CtBP-E1A inh 0, gsp agonist -2%[15.4 µM], ClpP mod -1.8%, Sfp inh -1% and gsp antag 9%.
Screening COC(=O)c1c(C)[nH]c(C)c1-c1ccc([N+](=O)[O-])cc1 returned TRPV1 potentiator 19, gsp agonist -38%[inhibitor], ClpP mod -3.3%, Sfp inh 10%, Menin-MLL FL inh -1.5 and gsp antag -7%.
`CCn1nnnc1SCC(=O)N1CCCCC1` gave TRPV1 potentiator -14, CtBP-E1A inh -2, gsp agonist -11%[15.4 µM] and gsp antag 13%.
COc1ccc(-n2c(Cn3nnc4ccccc43)nnc2SCC(=O)O)cc1 was read as TRPV1 potentiator 12, CtBP-E1A inh -1, gsp agonist 2%, ClpP mod -2.7%, Sfp inh 21%, Menin-MLL FL inh 3.8 and gsp antag 11%.
For CC(C)c1nnc(N2C(=O)c3oc4ccccc4c(=O)c3C2c2ccco2)s1 (centres undefined) the results were TRPV1 potentiator -4, CtBP-E1A inh -1, gsp agonist 2%, ClpP mod -3.5%, Sfp inh -26%, Menin-MLL FL inh inconclusive and gsp antag -8%.
`Cc1cn(CC(=O)NCCc2c[nH]c3ccccc23)c(=O)[nH]c1=O` gave CtBP-E1A inh 3, ClpP mod 1.3% and gsp antag 8%.
For CC(C)Oc1ccc(S(=O)(=O)N2CCOCC2)cc1NC(=O)C1CSC2(C)CCC(=O)N12 (centres undefined) the results were TRPV1 potentiator -22, CtBP-E1A inh 11, gsp agonist 8%[15.4 µM] and gsp antag -3%.
`NC(=O)c1ccc[n+](CC(=O)c2ccccc2)c1` gave TRPV1 potentiator 10, CtBP-E1A inh 0, gsp agonist -97%[inhibitor], Sfp inh 5%, Menin-MLL FL inh -2.1 and gsp antag 3%.
Cc1c(C(=O)Nc2nc(-c3ccccn3)cs2)oc2ccccc12 was read as TRPV1 potentiator 1, CtBP-E1A inh -86*, gsp agonist inconclusive, ClpP mod -21% and gsp antag -18%.
`NC(=O)C1CCN(C(=O)COc2cccc3ccccc23)CC1` gave TRPV1 potentiator -5, CtBP-E1A inh -7, gsp agonist -3%, ClpP mod -1.8%, Sfp inh -6%, Menin-MLL FL inh 2.7 and gsp antag -7%.
`Cc1ccc(C(CC(=O)O)C2CCOC(C)(C)C2)cc1` (centres undefined) gave TRPV1 potentiator -2, CtBP-E1A inh 3, gsp agonist 8%, ClpP mod -0.5%, Sfp inh 28%, Menin-MLL FL inh -0.1 and gsp antag -21%.
Cc1ccc(CNc2nc(-c3cccnc3)nc3ccccc23)cc1 was read as TRPV1 potentiator -7, CtBP-E1A inh -22, gsp agonist -8%, Sfp inh 89µM*, Menin-MLL FL inh 7.1 and gsp antag 4%.
Cc1c(Cl)cccc1NC(=O)c1cc(-c2ccco2)on1 was read as TRPV1 potentiator 5, CtBP-E1A inh 10, gsp agonist 25%[15.4 µM], Sfp inh -4%, Menin-MLL FL inh -3.3 and gsp antag 6%.
`Cn1c(CO)cnc1SCc1c(Cl)cccc1Cl` gave TRPV1 potentiator -9, CtBP-E1A inh 1, gsp agonist 10%, ClpP mod 0.3%, Sfp inh 16%, Menin-MLL FL inh -4.2 and gsp antag -1%.
`COc1ccc(Nc2nnc(SCC(=O)/C=C3/N(C)c4ccccc4C3(C)C)s2)cc1` gave TRPV1 potentiator 6, CtBP-E1A inh -28, gsp agonist inconclusive, ClpP mod -2.9%, Sfp inh 4%, Menin-MLL FL inh 12 and gsp antag -17%.
For CC1(C(=O)NCc2ccccc2)Oc2ccccc2NC1=O (centres undefined) the results were TRPV1 potentiator inconclusive, CtBP-E1A inh -3, gsp agonist -42%[inhibitor], ClpP mod 2.8%, Sfp inh 12%, Menin-MLL FL inh -3.9 and gsp antag 6%.
Cn1c2ccccc2c(=O)c2ccc(C#CC3(N)CCCCC3)cc21 was read as TRPV1 potentiator -8, CtBP-E1A inh 13, gsp agonist 21%, ClpP mod 4.1%, Sfp inh -16%, Menin-MLL FL inh 1.0 and gsp antag 7%.
O=C(O)/C=C\C(=O)Nc1ccc(F)c(F)c1F was read as TRPV1 potentiator 8, gsp agonist 10%, ClpP mod 1.7%, Sfp inh -7%, Menin-MLL FL inh 0.4 and gsp antag 2%.
For O=C1[C@H](Cc2ccccc2)NCCCC[C@@H](c2ccco2)N1Cc1ccccc1 the results were CtBP-E1A inh -7, gsp agonist 9%, ClpP mod 1.0%&-0.8% and gsp antag 1%.
`CN(C)S(=O)(=O)c1ccc2c(c1)nc(CCC(=O)NCc1ccc(Cl)cc1)n2C` gave TRPV1 potentiator -6, CtBP-E1A inh -10, gsp agonist 2%, Sfp inh 10%, Menin-MLL FL inh -2.2 and gsp antag 0%.
Cn1nc(C(F)(F)F)c(-c2ccc(Br)cc2)c1NC(=O)c1nccnc1C(=O)O was read as TRPV1 potentiator 18, CtBP-E1A inh -7, gsp agonist 18%, ClpP mod 1.7%, Sfp inh -5%, Menin-MLL FL inh 1.7 and gsp antag 13%.
`CC1CCc2c(sc3ncn(CCO)c(=O)c23)C1` (centres undefined) gave TRPV1 potentiator 2, CtBP-E1A inh 3, gsp agonist inconclusive, ClpP mod -1.4%, Sfp inh 9%, Menin-MLL FL inh -3.4 and gsp antag -3%.
`CS(=O)(=O)N1CCC(C(=O)Nc2cccc(Cl)c2Cl)CC1` gave TRPV1 potentiator -43, CtBP-E1A inh 0, gsp agonist 16%, Sfp inh -19%, Menin-MLL FL inh -1.1 and gsp antag 4%.
`O=C(CN1C(=O)C2C3C=CC(C4CC34)C2C1=O)Nc1cnc2ccccc2c1` (centres undefined) gave TRPV1 potentiator 2, CtBP-E1A inh 9, gsp agonist 11%, Sfp inh 14%, Menin-MLL FL inh 2.2 and gsp antag 3%.

Retrieved by compound from the list above (2):
`O=C(CN1C(=O)C2C3C=CC(C4CC34)C2C1=O)Nc1cnc2ccccc2c1` (centres undefined) gave TRPV1 potentiator 2, CtBP-E1A inh 9, gsp agonist 11%, Sfp inh 14%, Menin-MLL FL inh 2.2 and gsp antag 3%.
Cn1c2ccccc2c(=O)c2ccc(C#CC3(N)CCCCC3)cc21 was read as TRPV1 potentiator -8, CtBP-E1A inh 13, gsp agonist 21%, ClpP mod 4.1%, Sfp inh -16%, Menin-MLL FL inh 1.0 and gsp antag 7%.

Screens as filed in PubChem.
